TRPML1 inh: inhibitors of human TRPML1 channel; Q9GZU1; TRPML1-inducible cells, Ca2+ dye fluorescence, FDSS; stronger effect = lower value; inhibition of EC80 agonist-evoked calcium signal; activity change, negative = inhibition, % (no concentration beside the values); 0.02% of 390,000 active; AID 624415; in the data active means activity change below about -50%; inconclusive means about -30% to -50%; inactive means above about -30%;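 also: stimulus is agonist 54-4 at its EC80 concentration; % is scaled to controls: 0 for no effect and ±100 for the full control effect; compound concentration not given in the record; the text of the record puts the active cut at -80%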
Target sequence (Q9GZU1 whole entry, looked up): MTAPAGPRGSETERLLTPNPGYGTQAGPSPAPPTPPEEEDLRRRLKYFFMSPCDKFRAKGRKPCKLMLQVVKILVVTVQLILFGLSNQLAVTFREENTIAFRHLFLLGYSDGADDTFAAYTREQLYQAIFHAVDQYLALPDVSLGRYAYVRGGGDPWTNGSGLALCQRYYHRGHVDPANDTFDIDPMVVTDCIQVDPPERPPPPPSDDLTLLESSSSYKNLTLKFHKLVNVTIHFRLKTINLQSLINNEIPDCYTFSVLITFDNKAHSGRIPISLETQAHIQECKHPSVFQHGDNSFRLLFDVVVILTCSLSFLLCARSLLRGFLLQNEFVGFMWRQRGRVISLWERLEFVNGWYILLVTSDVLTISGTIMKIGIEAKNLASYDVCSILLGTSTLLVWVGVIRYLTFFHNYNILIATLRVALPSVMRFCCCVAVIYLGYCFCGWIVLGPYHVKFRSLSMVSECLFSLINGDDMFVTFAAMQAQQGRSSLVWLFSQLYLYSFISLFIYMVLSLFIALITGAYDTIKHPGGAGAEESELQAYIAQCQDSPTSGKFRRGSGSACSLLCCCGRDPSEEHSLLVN
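Calcium fluorescence in TRPML1-DL cells induced overnight with Tet: a 110 s read after compound pin addition, then a 110 s antagonist read after challenge with 54-4 at 4 uM final (EC80).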
Menin MLL FP FL: inhibitors of human menin-MLL interaction, wild-type MLL peptide; Fluorescence polarization, fluorescein-MLL peptide displacement from menin; 290,000 tested, under 10 active; FP activity change, % at 61.4 µM; AID 1766; inconclusive = falling polarisation curve, or a change in total fluorescence; inactive = total fluorescence flat and polarisation flat or rising; no compound was filed as active; the % refers to the polarisation; negative = inhibition;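 also: % of control where 0% means no effect; inhibitors lower the polarisation; unlabelled MLL peptide was the positive control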
gsp ag: activates gsp, the McCune-Albright syndrome mutation; gsp mutant cells, cAMP HTRF, 30 min; control for the full effect not named in the record; Potency, µM (highest dose often 76.9 µM), without a hit: at the highest dose activation (cAMP increase), hits mostly activators; 0.13% of 340,000 active; active = well fitted activation curve with a large enough effect; inconclusive = small, poorly fitted or top-dose-only effect, or another doubt; inactive = no such curve, though single readings can be large or run the other way; cell line not stated here;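 also: phosphodiesterase inhibitor Ro 20-1724 added with compounds to block cAMP breakdown; potency is read from the fitted curve at half-maximal effect; nearly all actives have a fitted effect of over 60% in size; about a fifth of the inactives were tested at one dose only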
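Cells in DMEM/10% FBS with G418 were pretreated with compounds in DMSO plus […] (300 uM stock) for 30 min at 37C. cAMP was measured by HTRF (cAMP-d2 plus anti-cAMP antibody-K) after 30 min at room temperature.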
gsp antag: gsp mutant antagonism; 0.4% of 340,000 active; Potency, µM (doses to about 76.9 µM), for inactives: at the top dose activity change, negative = inhibition, usual class: inhibitors; gsp-mutant cells, cAMP HTRF, 30 min; control for the full effect not named in the record; active = falling curve of any shape with a large fitted effect; inconclusive = falling curve, mostly with a smaller effect; inactive = flat or rising curve; cell line not stated here;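 also: intracellular cAMP measured with PDE inhibitor Ro 20-1724 present during compound exposure; potency is read from the fitted curve at half-maximal effect; % is scaled to controls: 0 for no effect and ±100 for the full control effect; nearly all actives have a fitted effect of over 65% in size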
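Cells in G418 medium, seeded 16-24 h, 37C; buffer exchange to DPBS + 1 mM CaCl2, 0.5 mM MgCl2, 0.05% BSA; cpds in DMSO + […] (300 uM stock), 30 min 37C; HTRF cAMP detection.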
ClpP mod: qHTS Assay for Activators of ClpP. 1.9% of 340,000 active. ATP-dependent Clp protease proteolytic subunit (Bacillus subtilis (strain 168)), P80244. AID 651965, 2013. purified B. subtilis ClpP, FRET peptide cleavage, 20 min. Potency, µM (series often up to 57.5 µM), inactives show at the highest dose activity change, negative = active; active = well fitted falling curve with a large enough effect; inconclusive = small, poorly fitted or top-dose-only effect; inactive = no such curve, though single readings can be large or run the other way; also: potency is read from the fitted curve at half-maximal effect; the source files actives as falling curves though it sought activators and does not explain the sign; nearly all actives have a fitted effect of over 65% in size; many hits overshoot -100%
Target sequence (P80244 whole entry, looked up): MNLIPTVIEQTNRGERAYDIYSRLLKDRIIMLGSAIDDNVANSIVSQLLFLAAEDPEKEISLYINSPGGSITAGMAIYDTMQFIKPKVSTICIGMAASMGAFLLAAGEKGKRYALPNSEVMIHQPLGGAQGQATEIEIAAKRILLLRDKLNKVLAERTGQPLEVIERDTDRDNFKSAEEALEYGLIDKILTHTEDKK
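ClpP 10 microg/mL final, pH 8 Tris/KCl buffer with BSA, glycerol, Tween-20; compound pinned in; FRET-FV substrate; RT 20 min; Ex320/Em430; ΔFRET vs ADEP 5.8 microM, DMSO, no enzyme.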
TRPML1 ag: human mucolipin-1 channel agonism; 0.12% of 410,000 active; TRPML1-expressing cells, Ca2+ dye fluorescence, FDSS; host cell line not named in the record; reference of the full effect not given here; activation, % (test concentration not listed); in the data active = activation above about 50%; inconclusive = about 30% to 50%; inactive = below about 30%; also: 0% is about no effect; the text of the record puts the active cut at 80%
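Calcium fluorescence on an FDSS kinetic reader gave the read-out. Tet-induced TRPML1-DL cells were plated overnight, dye-loaded (Ca8 with quencher, 45-90 min, room temperature, dark), then read 110 s after compound addition, and again 110 s after 4uM final 54-4 (EC80).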
* = called active by the depositor; ? = inconclusive; nt = not tested or not shown; & = joins results of further samples; [ ] = dose if it differs, or a comment.

SMILES	TRPML1 inh	Menin MLL FP FL	gsp ag	gsp antag	ClpP mod	TRPML1 ag
COc1ccc(-c2c(-c3cc(OC)cc(OC)c3)n(C)c3ccc(-c4ccc(N(C)C)nc4)cc23)cc1	17	nt	24%	5%	4.0%	-0.6
CCOC(=O)c1c(NC(=O)CSc2nc(C)cc(C)c2C#N)sc(C(C)=O)c1C	-3	1.4	-29%	6%	-4.2%	-0.3
Cc1ccc(-c2csc3ncn(CC(=O)NCC(c4ccco4)N4CCCC4)c(=O)c23)cc1 (configuration not stated)	5	nt	-4%	-3%	0.6%	-0.8
Cn1ncc(N=Cc2ccccc2)c1C(N)=O	-4	3.4	26%	2%	-0.3%	1.0
COc1ccc(NC(=O)COC(=O)c2ccc(Cl)c(S(N)(=O)=O)c2)c([N+](=O)[O-])c1	3	6.7	8%[15.4 µM]	-7%	nt	2.6
O=c1[nH]cnc2[nH]ncc12	14	4.9&3.3&0.9&2.5	nt	-1%	0.4%	-0.9
O=C(Oc1cc(=O)oc2c1c(=O)n1c3c(cccc23)CC1)c1ccccc1	3	10	30%[15.4 µM]	-12%	nt	-0.5
Cc1cccc(Cc2nnc(CCC(=O)NCc3cnc4ccccn34)o2)c1	-2	0.0	?	10%	3.6%	0.1
COc1ccc(CCNC(=O)CSc2nnc(CNC(=O)c3cc(OC)c(OC)c(OC)c3)o2)cc1OC	-11	nt	-12%	11%	-2.5%	-0.1
COc1ccc(-n2nc(C(=O)Nc3cccc(C)n3)c3c4ccccc4n(C)c3c2=O)cc1	-25	nt	nt	nt	-12%	1.6
Cc1ccc2c(=O)cc(C(=O)Nc3c(C(=O)c4ccc(F)cc4)oc4ccccc34)oc2c1C	-10	nt	nt	nt	-2.9%	0.6
CCCCc1ccc(N=N/C(C(=O)Nc2cc(OC)c(NC(C)=O)cc2OC)=C(/C)O)cc1	-10	-0.8	-8%	8%	1.8%	0.1
Cc1oc2ccc(O)cc2c1C(=O)c1ccc(Br)cc1	-8	nt	11%[15.4 µM]	-7%	-0.2%	0.6
Cc1cccc(NC(=O)NNC(=O)c2cc3ccccc3cc2O)c1C	-13	?	-2%[15.4 µM]	-15%	nt	0.4
CSc1nc2c(c(-c3ccccc3)c1C#N)CCC2	5	nt	-17%	-3%	0.3%	-0.4
Cc1c(C(=O)N/N=C/c2c(O)ccc3ccccc23)nnn1-c1nonc1N	-19	?	5%	6%	0.3%	0.8
Cn1c(N2CCC(C(N)=O)CC2)nc2c1c(=O)n(Cc1cccc(Br)c1)c(=O)n2C	-9	3.7	18%	-5%	-2.7%	0.2
COc1cc(CC(=O)OCC(=O)c2ccc[nH]2)cc(OC)c1OC	21	nt	-20%	13%	0.2%	0.0
Cc1ccc(CNC(=O)CCS(=O)(=O)c2ccc(Br)cc2)cc1	-2	5.0	-38%[inhibitor]	1%	nt	-0.1
Cc1cccc(Cn2ccn(Cc3ccc(Cl)cc3)c(=O)c2=O)c1	12	nt	nt	nt	-0.8%	0.1
Cc1ccc(C)c(OCC(=O)Nc2ccc(S(=O)(=O)Nc3onc(C)c3C)cc2)c1	-7	-1.0	?	-9%	nt	-0.4
COc1ccc(C2CC(c3ccc4ccccc4c3)=NN2C(=O)CNC2CCCCC2)cc1 (configuration not stated)	-11	5.1	-48%[inhibitor]	14%	4.2%	1.1
COc1ccc(NC(=O)Cc2nnc(SCC(=O)c3ccccc3)n2C)cc1	10	nt	23%[15.4 µM]	-1%	nt	-0.2
C/C(=N\NC(=O)c1ccc(NS(=O)(=O)c2cccs2)cc1)c1ccc(O)cc1O	4	11	3%[15.4 µM]	-10%	nt	1.3
COc1ccc(Cc2nnc(NC(=O)c3ccc(OC)c(OC)c3)s2)cc1OC	6	-0.4	0%	4%	-2.8%	0.2
COc1ccc(S(=O)(=O)n2nc(C)c(S(=O)(=O)N3CCOCC3)c2C)cc1	-1	4.0	3%	20%	0.0%	0.1
COc1ccc(Cc2nc(-c3ccncc3)no2)cc1	7	6.7	-29%	5%	2.4%	2.8
Cc1ccc(S(=O)(=O)Nc2ccccc2C(=O)N2CCCCC2C)c(C)c1NS(C)(=O)=O (configuration not stated)	-16	4.4	11%	-7%	nt	-0.1
CC1SC(C)C(=O)N(CC(=O)NCc2ccc(F)cc2)C1=O (configuration not stated)	-2	5.0	-36%[inhibitor]	7%	1.9%	0.0
Cc1ccc(S(=O)(=O)N(C)CC(=O)N2CCN(C(=O)c3ccco3)CC2)cc1	0	2.2	0%	3%	0.0%	-0.7
O=C(Nc1ccccc1C(=O)O)c1cccc(N2C(=O)c3ccccc3C2=O)c1	5	7.8	9%	-11%	nt	0.1
O=C(Nc1ccc2c(c1)COC2=O)c1ccc(Cl)c(Cl)c1	35	nt	-19%	-5%	-10%	0.7
Cc1cccc(NS(=O)(=O)c2cc([N+](=O)[O-])ccc2C)n1	3	4.5	2%[15.4 µM]	8%	nt	-0.5
CN(Cc1nccs1)C(=O)C1CCC(=O)N(CCc2ccc(Cl)cc2)C1 (configuration not stated)	14	0.0	3%	8%	-0.1%	-0.7
Cc1cc(C)c(NC(=O)C2=CCN(S(=O)(=O)c3ccc(F)cc3)CC2)c(C)c1	25	1.9	-7%	5%	-1.0%	0.7
Cc1ccc(CNC(=O)c2oc3ccc(S(=O)(=O)N4CCCC(C)C4)cc3c2C)cc1 (configuration not stated)	1	nt	nt	nt	-3.2%	1.1
Cn1c(=N)n(CC(=O)c2cccs2)c2ccccc21	-1	-0.9	-63%[inhibitor]	-1%	-0.1%	-0.2
Cc1ccccc1NC(=O)c1ccccc1	0	0.5	?	13%	2.0%	-0.6
Cc1ccc(N2C(=O)CC(C)(C)CC2=O)cc1Cl	19	0.4	1%[15.4 µM]	-3%	0.1%	0.6
COc1ccc(CC(=O)Nc2ccc(-c3ccc4nnc(C)n4n3)cc2)cc1OC	22	-0.3	-11%[15.4 µM]	8%	nt	-0.5
C/C(=N/N=C1\SCC(=O)N1c1ccccc1)c1ccc(C)cc1	-19	0.0	4%[15.4 µM]	0%	nt	0.5
COCCCNC(=O)CSc1nc2cc3c(cc2c(=O)n1CCCC(=O)NCc1ccc(OC)cc1)OCO3	7&2	0.9	8%[15.4 µM]	8%	-3.5%	-1.3&2.2
COc1cc(C(=O)N2CCN(CCc3ccccn3)CC2)cc(OC)c1OC	17	nt	nt	nt	-0.2%	0.9
COc1ccccc1NCC(=O)N/N=C(\C)c1ccc(Br)s1	3	5.4	-50%[inhibitor]	-21%	-1.4%	0.7
CCn1c(=O)c2c3c(sc2n(C)c1=O)CCC3	-3	2.3	?	7%	1.4%	1.2
COC(=O)c1ccc(COc2cccc(C)c2C)cc1	-6	3.0	-2%[15.4 µM]	4%	nt	4.8
CSCCC(NC(=O)COc1ccccc1)C(=O)N1CCCC(C)C1 (configuration not stated)	8	-3.3	?	-1%	-4.1%	-0.7
Cc1sc(NC(=O)c2ccccc2)c(C(c2ccccn2)N2CCN(CCO)CC2)c1C (configuration not stated)	-12	-2.2	9%	3%	1.3%	0.6
Cc1ccccc1CC(=O)NC1CCCc2ccccc21 (configuration not stated)	-22	-0.8	13%[15.4 µM]	-14%	1.1%	1.4
COc1ccc(C(=O)Nc2ccc3ccccc3n2)c(OC)c1OC	-3	-5.0	-16%	-12%	3.9%	0.8
Next part
SMILES	TRPML1 inh	Menin MLL FP FL	gsp ag	gsp antag	ClpP mod	TRPML1 ag
COc1ccc(-c2nc3n(c(=O)c2C#N)CCS3)cc1	9	0.8	-12%[15.4 µM]	-6%	nt	-0.7
CCc1nnc2c(N(C)C)nc3ccccc3n12	16	-1.8	-26%	7%	0.0%	0.7
CCNc1nc(Oc2ccc(Cl)cc2Cl)cc(C(F)(F)F)n1	0	-0.9	0%	-21%	-9.1%	0.5
CCOC(=O)c1nn(C)c(=S)n(C)c1=O	-3	nt	9%	6%	nt	-0.8
Cc1c(C)c2ccc(OC(C)C(=O)NCCN3CCOCC3)c(C)c2oc1=O (configuration not stated)	1	-2.4	?	-1%	3.7%	-0.5
COc1ccc(CCNC(=O)CCn2c(=O)c3ccccc3n(CC(=O)Nc3ccc(C)cc3C)c2=O)cc1OC	-10	nt	nt	nt	-0.1%	1.6
COc1ccc(N(CC(=O)Nc2ccc3c(c2)OCCO3)S(=O)(=O)c2c(C)nn(C)c2C)cc1	-6	4.0	-40%[inhibitor]	-10%	-0.2%	1.6
NC(=O)c1ccc(Oc2ncc(C(F)(F)F)cc2Cl)cc1	-7	-6.6	8%[15.4 µM]	12%	nt	2.6
COc1cccc(-c2nc3ccccc3c(=O)n2NC(=O)c2cccnc2Cl)c1	-11	-1.4	-20%	4%	1.1%	0.3
Cc1cc(C(=O)OC(C)C(=O)Nc2cccc(Cl)c2)on1 (configuration not stated)	-19	nt	-25%[15.4 µM]	2%	nt	2.0
CCCC(C(=O)NC1CCCC1)N(Cc1ccc(F)cc1)C(=O)c1snc(C(N)=O)c1N (configuration not stated)	-2	0.7	-34%[inhibitor]	-9%	nt	0.2
COc1ccc(N(C)S(=O)(=O)c2c(C)[nH]c(=O)[nH]c2=O)cc1	-5	4.3	-31%[inhibitor]	9%	-3.7%	1.7
O=C(CSc1nc(C(F)(F)F)cc(=O)[nH]1)Nc1ccc2c(c1)OCCO2	0	nt	-50%[inhibitor]	7%	0.7%	-0.2
CC1=N/C(=C\c2ccccc2Cl)C(=O)O1	15	nt	-1%[15.4 µM]	10%	0.4%	-0.1
N#CCCN(C(=O)COC(=O)CNS(=O)(=O)c1ccc2ccccc2c1)c1ccccc1	28	nt	3%	-6%	1.2%	4.1
CCOCCn1c(CN2CCN(CC)CC2)nc2c1c(=O)n(C)c(=O)n2C	13	5.7	-2%	11%	1.1%	-0.2
COc1cc(O)c(C(CC(=O)N2CCOCC2)c2cc(OC)c(OC)c(OC)c2)c(OC)c1 (configuration not stated)	5&-2	-0.3&6.2	nt	18%	-0.1%	1.3&-0.6
O=C(/C=C/c1ccccc1)Nc1cccc(C(=O)NCCCCc2ccccc2)c1	-13	nt	nt	-1%	-20%	-0.6
CC1=NN(C(=O)c2cccc(Cn3nc(C)c([N+](=O)[O-])c3C)c2)C(O)(C(F)(F)F)C1 (configuration not stated)	1	-2.2	19%	-9%	3.7%	-0.2
COc1ccc2cc(/C(C)=N/NC(=O)C3CC3)ccc2c1	17	1.0	-7%[15.4 µM]	5%	nt	0.6
